Bioassay records from PubChem.
eIF4H FP inh = human eIF4H binding inhibitors, primary screen, translation initiation inhibitor project, biochemical, uHTS, fluorescence polarization; eIF4H fluorescence polarization binding assay; inhibition, % at 35 µM; actives 0.94% (n = 290,000);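 active means 50% or more with normal probe brightness, or confirmed in later tests; inconclusive means above 50% with abnormal brightness, or retests that disagree; inactive means below 50% or failed in later tests; about a fifth of its hits are not listed in these tables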;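 further: calls also rest on retests at 20 µM and on dose response follow-up; 0% = protein and probe with vehicle and 100% = probe without protein; strong numbers were not always called active; many hits fall short of the cut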
Yeast UUG start = modulators of yeast start codon fidelity, primary screen, whole organism, S. cerevisiae, single point, plate reader | activity score, % at 18.7 µM | S. cerevisiae UUG-firefly luciferase reporter, luminescence/redox ratio | actives 0.13% (n = 350,000);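 active means replicate mean at a twofold rise or more, about +100% in these data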;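 further: firefly luciferase made from a UUG start codon reports start codon fidelity; reporter light over untreated wells divided by growth signal over untreated wells; some hits fall short of that in this replicate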
PABP FP inh = PABP poly(A) RNA binding inhibitors, primary screen, biochemical, fluorescence polarization, uHTS | actives 1% (n = 290,000) | AID 2014, 2009 | Polyadenylate-binding protein 1 (Homo sapiens), P11940 | inhibition, % at 35 µM;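 active means 50% or more with normal probe brightness, or confirmed in later tests; inconclusive means above 50% with abnormal brightness, or retests that disagree; inactive means below 50% or failed in later tests; about a fifth of its hits are not listed in these tables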;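 further: calls also rest on retests at 20 µM and on dose response follow-up; controls were probe without protein and protein plus probe with vehicle; some compounds called inactive have numbers as strong as hits; many hits fall short of the cut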
Target sequence (P11940 whole entry, looked up): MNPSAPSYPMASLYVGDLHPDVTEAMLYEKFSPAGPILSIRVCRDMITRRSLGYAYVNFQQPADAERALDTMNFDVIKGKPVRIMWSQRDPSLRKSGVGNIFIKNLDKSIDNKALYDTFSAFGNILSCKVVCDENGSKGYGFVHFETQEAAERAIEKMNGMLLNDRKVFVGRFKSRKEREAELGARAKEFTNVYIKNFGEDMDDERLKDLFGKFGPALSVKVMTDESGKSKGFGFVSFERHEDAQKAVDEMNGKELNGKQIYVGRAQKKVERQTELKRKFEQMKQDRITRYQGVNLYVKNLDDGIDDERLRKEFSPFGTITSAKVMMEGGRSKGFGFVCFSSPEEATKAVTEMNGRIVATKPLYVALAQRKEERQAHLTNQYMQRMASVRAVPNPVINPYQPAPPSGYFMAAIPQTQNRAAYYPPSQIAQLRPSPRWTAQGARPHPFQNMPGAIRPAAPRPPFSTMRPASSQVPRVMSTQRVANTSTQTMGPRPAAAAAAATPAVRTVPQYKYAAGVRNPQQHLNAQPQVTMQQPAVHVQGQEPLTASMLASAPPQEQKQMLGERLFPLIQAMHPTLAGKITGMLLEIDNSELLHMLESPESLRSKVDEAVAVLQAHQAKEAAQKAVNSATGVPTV
Rce1 inhib = yeast Rce1p protease inhibitors, primary screen, biochemical, fluorescence, cell-free homogeneous; CAAX prenyl protease 2 (Saccharomyces cerevisiae (strain ATCC 204508 / S288c)), Q03530; yeast membranes, quenched prenylated peptide cleavage fluorescence; calls only; actives 0.27% (n = 290,000); AID 2563, 2010;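 active means fall in fluorescence gain of 50% or more versus controls, with final raw signal at or below 3038400; inconclusive means same 50% fall but final raw signal above 3038400; inactive means fall in fluorescence gain under 50%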;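 further: plate controls were neutral control wells for no effect and wells lacking membranes for full effect; tested at 10 µM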
Target sequence (Q03530 whole entry, looked up): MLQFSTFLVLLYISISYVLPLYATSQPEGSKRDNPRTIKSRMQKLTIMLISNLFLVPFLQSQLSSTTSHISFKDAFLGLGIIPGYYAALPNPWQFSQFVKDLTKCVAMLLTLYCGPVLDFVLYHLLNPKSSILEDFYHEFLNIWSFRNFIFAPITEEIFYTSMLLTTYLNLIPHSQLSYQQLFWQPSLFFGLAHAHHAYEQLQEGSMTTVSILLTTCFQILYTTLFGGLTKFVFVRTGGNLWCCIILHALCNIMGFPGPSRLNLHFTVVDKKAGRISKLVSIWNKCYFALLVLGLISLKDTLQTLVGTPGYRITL
MT1-MMP act inh = blockers of MT1-MMP proenzyme processing, primary screen, HT1080 RFP-PRO-GFP cells, GFP/RFP fluorescence; actives 0.061% (n = 360,000); GFP/RFP ratio change, % at 20 µM; AID 651647, 2012; GFP/RFP ratio fluorescence, overnight; percent of plate control window, DMSO zero; Matrix metalloproteinase-14 (Homo sapiens), P50281;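 active means GFP/RFP ratio change of at least 30% with cell ATP level not reduced by more than half and red fluorescence within 50% of control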; further: strong numbers were not always called active
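Assay system: HT1080 cells carrying an RFP-PRO-GFP reporter | Dosing: Single dose of 20 µM compound, 1% DMSO final | Incubation: Cells overnight before dosing, compound overnight, 37 °C, 5% CO2 | Evaluation: GFP/RFP fluorescence ratio | Control set: DMSO and RFP-L50D-GFP cell wells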
HIV Env fusion = inhibitors of HIV-1 Env-driven cell-cell fusion, primary screen, HeLa-JRFL effector, CEM21 target cells, luciferase; inhibition, % at 12.3 µM; actives 1.1% (n = 360,000); AID 651610, 2012;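 active means mean replicate inhibition score of at least 50 and every replicate individually at or above 50; inconclusive means only one of the two criteria met; inactive means mean below 50 and not all replicates reaching 50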;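 further: 0% = plate neutral controls and 100% = maraviroc near 300 nM; one replicate is shown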
CSC inhib = cancer stem cell viability inhibitors, primary screen, luminescence; cancer stem cell-like cells viability; AID 2717, 2010; inhibition, % at 7.5 µM; actives 1.1% (n = 300,000);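 active means mean at 75% or more and at least half the replicates too; inconclusive means mean and replicates disagree; tested in HMLE shEcad cells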;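 further: 0% = median of negative and 100% = median of positive control wells; the first replicate is given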
MT1-MMP act inh RFP = further read-out of MT1-MMP act inh, marked with its call; RFP signal change, %; measured here: RFP expression control read;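 0 = vehicle wells; hits needed this value within 50% of zero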
Numbers without * were called inactive; i = inactive; u = inconclusive; x = not tested or not shown. Only part of the results is shown, so the mix of outcomes need not match the whole.

Values run as follows: eIF4H FP inh	HIV Env fusion	Yeast UUG start	Rce1 inhib	CSC inhib	PABP FP inh	MT1-MMP act inh	MT1-MMP act inh RFP
O=S(=O)(Nc1cccc(Cl)c1)c1ccc2oc(=S)[nH]c2c1
  -3	15	x	i	-9	-12	1	3
C[C@@H](C(=O)NCc1ccc(S(C)(=O)=O)cc1)[C@H]1C[C@]1(C)[C@H](NC(=O)OCc1ccccc1)c1ccccc1
  -6	55*	x	x	-18	3	x	x
Cc1ccc(S(=O)(=O)N(CC(=O)NCCC2=CCCCC2)Cc2ccccc2F)cc1
  -8	x	-20	x	3	-1	-14	-15
O=c1c(/C=N/O)c(Nc2ccccc2)nc2ccccn12
  3	x	-20	i	6	5	-3	-9
CCOC(=O)Cc1csc(NC(=O)c2ccc(OC)c(OC)c2)n1
  -2	-25	2	i	x	5	6	-3
COC(CNC(=O)c1cccnc1)OC
  0	1	x	i	-3	-1	-2	1
CNC(=O)c1cc2cc(Cl)cc(OC)c2oc1=O
  x	x	x	i	-1	x	-9	-1
CC(C)[C@H](NC(=O)NCCC1=CCCCC1)C(=O)O
  -13	-1	-8	i	3	2	-3	-1
Cc1cc(OCC(O)CN2CCCC2)cc(C)c1Cl (stereo not given)
  -10	0	-38	i	9	4	0	4
N#Cc1c2c(c(=S)n(-c3ccccc3)c1N)CCCC2
  u	x	-11	i	-29	u	x	x
CCN(CC)S(=O)(=O)c1ccc(N2CCOCC2)c(NC(=O)c2ccco2)c1
  x	58*	-9	x	-17	x	-5	-1
O=C(COC(=O)C1CC(=O)N(C2CCCCC2)C1)c1ccc(F)cc1 (stereo not given)
  -7	14	-6	i	6	26	-1	5
O=C(c1coc2ccc(O)c(CN3CCOCC3)c12)C1CC1
  -2	-40	-12	i	x	1	2	2
CCSc1nnc(NC(=O)c2cccs2)s1
  1	-142	x	i	-14	3	0	0
CCNc1nc(NC(C)C)nc(NS(=O)(=O)c2ccc(N)cc2)n1
  -2	-14	-4	i	-3	-4	x	x
O=C(CCCc1ccccc1)NCCS(=O)(=O)N1CCN(c2ccccc2F)CC1
  x	-20	4	i	-12	x	3	-1
Cc1ccc(OCC(=O)NNC(=O)CCC(=O)Nc2ccc(C)cc2C)cc1
  -6	-89	-17	i	-9	-2	3	3
Cc1cc(N2CCCC(C(=O)Nc3cccc(Cl)c3)C2)n2ncnc2n1 (stereo not given)
  -15	4	x	i	9	-8	1	-4
CCCc1nnc(SCC(=O)Nc2nnc(CC)s2)n1CC1CCCO1 (stereo not given)
  -10	14	-16	i	-19	-7	1	3
CCCCCC(=C/c1ccccc1)/C=N/Nc1ccc(S(=O)(=O)N2CCOCC2)cc1[N+](=O)[O-]
  x	-4	-11	x	x	x	7	-9
O=C(CCN(CCO)Cc1ccccc1)Nc1ccc(Br)cc1
  0	6	-6	i	14	8	3	1
COc1ccc(C2c3[nH]c4ccccc4c3CCN2C(=O)c2cn3ccccc3n2)c(F)c1 (stereo not given)
  -8	-19	-23	i	6	4	-4	-6
CC(=O)C1=C(C)NC(SCC(=O)Nc2nc3ccccc3s2)=C(C#N)C1c1ccc(Cl)cc1 (stereo not given)
  -8	x	x	i	-3	-1	-2	-4
O=C(COC(=O)CCSc1ccc(Cl)cc1)Nc1ccc(F)cc1
  3	x	x	i	-3	-8	-1	3
O=C(NCc1ccccc1)C12CC3CC(CC(Br)(C3)C1)C2
  -12	-12	-14	i	-13	-2	-1	5
O=C(NCc1ccc(F)cc1)c1cnc2n(c1=O)CCS2
  5	9	-16	i	0	0	2	-2
COc1cc2[nH]c(=S)n(CCN3CCCCC3C)c(=O)c2cc1OC (stereo not given)
  5	-6	-2	i	13	-3	6	4
COc1ccc(NC(=O)COC(=O)Cn2cnc3ccccc3c2=O)c(OC)c1
  x	x	-6	x	-1	x	0	-1
COc1ccc(NC(=O)CN2CCN(C(=O)C3CCCO3)CC2)c(OC)c1 (stereo not given)
  -8	5	-6	i	1	-8	-2	4
COC(=O)c1ccccc1NC(=O)CSc1nnc(C(C)NC(=O)c2ccc(Cl)cc2Cl)n1C (stereo not given)
  -1	26	21	i	-9	-4	-1	-1
Cc1cccc(-c2nnn(C/C(N)=N/O)n2)c1
  -5	1	x	i	x	-10	4	4
CC[C@]12c3[nH]c4ccc(Cl)cc4c3CCN1C(=O)[C@@H](CC(=O)NCc1cccc(C(F)(F)F)c1)C[C@@H]2C(=O)N1CCN(C(=O)C2CC2)CC1
  x	22	15	x	x	x	2	-7
CCC(=O)N1CCc2cc(S(=O)(=O)N3CCCCCC3)ccc21
  -6	-3	-11	i	6	0	-1	-2
COc1cc(/C=C2\SC(=S)N(NS(=O)(=O)c3ccccc3)C2=O)ccc1O
  -6	-38	-23	i	19	-8	-27	55
O=C(Nc1ccc(Br)cc1)C1CCCN1S(=O)(=O)c1cccs1 (stereo not given)
  -2	x	4	i	4	2	1	-23
COC(=O)c1ccccc1N(C)S(=O)(=O)c1cc2c3c(c1)CCC(=O)N3CCC2
  x	18	-7	i	x	x	1	-1
N#C/C(=C/c1ccc(Cl)cc1)NC(=O)c1ccccc1
  3	x	-25	i	10	4	5	6
CCCn1nnnc1NCc1cc(Br)ccc1OC
  -4	-19	-10	i	-17	1	2	3
C[C@H](NC(=O)[C@@H]1CSC2c3ccccc3C(=O)N21)C(=O)NC1CCCCC1 (stereo not given in full)
  0	0	5	i	-7	4	-2	0
COc1ccc(-c2cc(-c3ccc(C)cc3)nc(SCc3nnc(-c4ccccc4)o3)c2C#N)cc1OC
  -2	-26	-10	i	x	-2	-10	-1
O=C(NN1C(=O)C2C3C=CC(C3)C2C1=O)c1ccncc1 (stereo not given)
  -5	x	x	i	-20	0	1	4
Cc1c(C(=O)NCc2ccco2)sc(=O)n1Cc1ccc(S(C)(=O)=O)cc1
  x	3	-12	x	x	x	1	0
COC(=O)c1ccc(/C=N/N2CCN(Cc3ccccc3Cl)CC2)cc1
  -4	1	x	i	2	4	10	1
CC1(C)C=Cc2c(ccc3c2OC[C@H](c2ccc(O)cc2O)C3)O1
  x	-35	1	x	114*	x	13	0
CCn1ccnc1CN1CCc2c([nH]c3ccccc23)C1C(C)(C)C (stereo not given)
  2	3	x	i	18	6	-9	-3
CCc1ccc(OCC(O)Cn2c(N3CCCCC3)nc3c2c(=O)[nH]c(=O)n3C)cc1 (stereo not given)
  6	11	-8	i	-13	-6	4	-1
N#Cc1ccc(COc2cccnc2[N+](=O)[O-])cc1
  -8	9	x	i	-5	1	-1	-2
CCCS(=O)(=O)N1CCCC(C(=O)NCCCOC(C)C)C1 (stereo not given)
  3	x	x	i	-6	4	3	5
CCOC(=O)C1CCCN(Cc2nc(N)nc(Nc3ccc(OC)cc3)n2)C1 (stereo not given)
  8	70*	-14	i	-2	4	-3	-5
CCN(CC)S(=O)(=O)c1ccc(NC(=O)COc2nc3ccccc3nc2N2CCOCC2)cc1
  -6	30	x	i	-3	0	0	-2

(continued)
Values run as follows: eIF4H FP inh	HIV Env fusion	Yeast UUG start	Rce1 inhib	CSC inhib	PABP FP inh	MT1-MMP act inh	MT1-MMP act inh RFP
CC(NC(=O)COc1ccc(Br)cc1)C1CCCO1 (stereo not given)
  -5	-1	-14	i	0	8	-2	-3
Cc1ccc(-n2cccn2)c([C@@H]2C[C@H]3CN(C)C(=O)[C@]34CCCN24)c1
  -12	14	x	i	-10	-16	-4	1
Cc1ccc(NC(=O)CCCNC(=O)c2ccc(Cl)cc2)cc1S(=O)(=O)N1CCCCC1
  x	32	-15	x	x	x	-2	-14
CC(=O)Nc1ccc(C2C(=O)c3ccccc3C2=O)cc1
  -6	9	-19	i	-1	-2	0	2
COc1ccc(/C=C/C(=O)Oc2ccc(/C=N\NC(=O)c3ccc(F)cc3)cc2)cc1
  -1	-2	x	i	-6	14	-2	5
CCC(C)(C)NCC(=O)Nc1ccc(OC(F)(F)F)cc1
  0	-69	-2	i	26	19	7	0
Cc1occc1C(=O)NNC(=S)NC(=O)COc1ccc(Cl)cc1Cl
  -8	1	-27	i	x	0	1	3
CC(C)c1nc(SCC(=O)NC2CCCCC2)c2ccccc2n1
  -9	-2	-16	x	-2	-3	1	-11
Cc1ccc(-c2nc3ncccc3o2)cc1NC(=O)C(C)C
  -10	-19	-15	i	4	7	-1	0
CCOC(=O)C1=C(CSc2nnnn2C)N(C)C(=O)NC1c1ccccc1 (stereo not given)
  2	x	1	i	4	2	1	3

Entries of single compounds, quoted from the list. Screens in order: eIF4H FP inh | HIV Env fusion | Yeast UUG start | Rce1 inhib | CSC inhib | PABP FP inh | MT1-MMP act inh | MT1-MMP act inh RFP
Profile of COc1ccc(/C=C/C(=O)Oc2ccc(/C=N\NC(=O)c3ccc(F)cc3)cc2)cc1 = -1 | -2 | x | i | -6 | 14 | -2 | 5
Profile of Cc1ccc(NC(=O)CCCNC(=O)c2ccc(Cl)cc2)cc1S(=O)(=O)N1CCCCC1 = x | 32 | -15 | x | x | x | -2 | -14

(next part)
Values run as follows: eIF4H FP inh	HIV Env fusion	Yeast UUG start	Rce1 inhib	CSC inhib	PABP FP inh	MT1-MMP act inh	MT1-MMP act inh RFP
CN(C)C(CNC(=O)c1cc2ccccc2oc1=O)c1ccccc1 (stereo not given)
  -13	-52	-7	i	10	0	-1	1
C=CCSc1nnc(NC(=O)CSc2nnc(C)s2)s1
  14	x	0	i	-5	4	4	3
COc1cc(/C=C2/CCCC(C(=O)C(F)(F)F)=C2O)ccc1O
  9	3	-15	i	-5	11	1	1
COc1ccc(CN(C(=O)CO/N=C/c2ccccc2)c2ccccc2C(=O)O)cc1
  -12	-11	x	i	-10	-5	-4	-5
Fc1cccc(Cl)c1-c1nnc2ccc(N3CCOCC3)nn12
  7	18	-5	i	-10	0	2	-4
O=C(NCC1CC1)C1CCCN(S(=O)(=O)c2ccc(-n3cnnn3)cc2)C1 (stereo not given)
  -4	15	-5	i	x	-5	1	3
CCS(=O)(=O)c1ccc2oc(Nc3cccc(OC)c3)nc2c1
  5	-23	-11	i	x	1	1	0
COc1ccc(S(=O)(=O)Nc2ccc(Oc3ccsc3C(=O)O)cc2)cc1
  -8	6	x	i	-6	5	2	6
CCSc1nnc([C@@H]2CCCN2C(=O)OC(C)(C)C)o1
  -3	x	5	i	2	23	1	1
COc1ccccc1C(=O)Nc1ccnn1C1CCN(Cc2cnc(N(C)C)s2)CC1
  -10	-2	4	i	0	-10	1	2
CC(=O)NC12CC3CC(C1)CC(C(=O)N1CCN(S(=O)(=O)c4ccc([N+](=O)[O-])cc4)CC1)(C3)C2
  x	5	-12	x	x	x	0	-2
Cc1cccc(N(CC(=O)N2CCOCC2)S(C)(=O)=O)c1
  -12	x	-10	i	-4	-4	-2	1
CC(=O)Nc1ccc(O)c(-c2nc3ccccc3s2)c1
  -5	-29	x	i	-3	-2	-2	-1
CCOC(=O)Cn1c(=O)oc2cc(S(=O)(=O)Nc3ccc(N(CC)CC)cc3C)ccc21
  5	-15	-4	i	54	-2	-4	-1
C=CCN1C(=O)/C(=C/c2ccc(O)cc2)S/C1=N/c1nccs1
  -8	-11	-18	i	55	3	-132	-3
CCOC(=O)C(=O)/C(C#N)=C/Nc1ccccc1
  14	x	-8	i	-3	14	-1	7
